Bioassay records deposited in PubChem BioAssay by Center for Chemical Genomics, University of Michigan.
HIV TAR-Tat – HIV-1 TAR-Tat binding disruption | HIV-1 TAR RNA, Tat peptide displacement FRET; active compounds read high | z-score (concentration not given with the values) | 100,000 compounds, 0.6% hits | AID 1259389;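 also: score is relative to mean and SD of negative controls; some compounds called inactive have numbers as strong as hits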
CDC25B CDK2 inh – human CDC25B-CDK2/CyclinA binding inhibition | AID 1259370 | 94,000 compounds, 0.72% hits | z-score (no concentration beside the values) | P30305+P24941 | HTRF CDC25B-CDK2/CyclinA binding, anti-His/anti-Flag; active compounds read high;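 also: score is relative to mean and SD of negative controls; strong numbers were not always called active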
* hit, by the source's call; · = no result given.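 The calls were made as follows: active = z-score from 3 up in half or more of its runs; inactive = the rest.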

SMILES	HIV TAR-Tat	CDC25B CDK2 inh
COc1ccc(OC)c(C2C3=C(CC(c4ccccc4)CC3=O)Nc3nnnn32)c1 (configuration not stated)	0	·
Cc1cc2nc(NC3=NCN(Cc4ccco4)CN3)nc(C)c2cc1C	0.07	14*
CCc1ccc2oc(C(=O)Nc3nnc(C(C)C)s3)cc(=O)c2c1	2.2	-1.8
COc1ccc(NCc2cccn2-c2nnc(N3CCCCC3)s2)c(OC)c1	0.55	·
O=C(NC1CCCCC1)c1ccc(CS(=O)c2cccc(Cl)c2)o1 (configuration not stated)	0.79	·
CCc1c(C)nc2ncnn2c1N1CCN(c2ccc(OC)cc2)CC1	0.58	·
Cc1nn(CC(=O)NCc2cccs2)c(=O)c2cccn12	1.6	-2.1
O=C(O)c1ccc(Sc2ccc(Cl)cc2)c([N+](=O)[O-])c1	·	0.59
COc1ccc(SCc2cc(=O)n3c(C)csc3n2)cc1	1.4	-3.1
COc1ccc(S(=O)(=O)Nc2ccc(-c3ccc(S(C)(=O)=O)nn3)cc2)cc1F	-0.32	·
Fc1ccc(OCc2nc(-c3ccc(Br)cc3)no2)cc1	0.34	-1.9
O=S(=O)(Nc1ccccc1Cl)c1ccc2nc(-c3ccccc3)[nH]c2c1	·	-1.1
COc1ccc(-c2cc(OC(=O)c3ccc(F)cc3)c3c(C)oc(C)c3c(=O)c2)cc1OC	1.7	-1.7
CC(C)(C)NC(=O)NC1COc2ccccc2C1 (configuration not stated)	1.2	·
Cc1cccc(NS(=O)(=O)N(C)C)c1	0.51	1
CN(C)C(=O)c1ccc2c(c1)NC(=O)CS2	1.9	·
COC(=O)c1cc2sccc2n1CC(=O)N1CCCc2ccccc21	1.9	-0.78
COCc1nc2scc(-c3ccccc3)c2c(=O)[nH]1	-0.55	-0.36
COc1ccc(C2Sc3ccccc3N(CCN(C)C)C(=O)C2OC(C)=O)cc1 (configuration not stated)	1.6	·
O=C1CC(n2nnn(-c3ccccc3F)c2=S)C2COC1O2 (configuration not stated)	·	-1.4
Cc1cc(NS(=O)(=O)c2cc(-c3nc(C)c(C(=O)N4CCC(C)CC4)s3)n(C)c2C)no1	1.4	·
CCCN1CCN(c2ncc3c(n2)CCN(Cc2cc(F)cc(F)c2)C3)CC1	1.3	·
Cc1ccc(OCC(=O)Nc2cccc(-c3nc4ccccc4o3)c2)cc1	·	-0.58
CCCCC(=O)Nc1nc2nc(CCC)cc(=O)n2[nH]1	0.59	-1.6
CCc1ccccc1NS(=O)(=O)c1ccc(-c2cc(C)[nH]n2)s1	-0.43	·
c1ccc2[nH]c(CSc3nc4ccccc4o3)nc2c1	·	1.2
CCOC(=O)CSc1nncc(=O)[nH]1	·	-0.9
Cc1cc(C)n(-c2nnc(Nc3ccc(O)cc3)c3ccccc23)n1	1.2	·
Cc1c(-c2nsc(NC(=O)c3cccs3)n2)nnn1-c1ccc(F)cc1F	1.6	·
Oc1cccc2ccc(CNCCC3=CCCCC3)nc12	0.55	·
CC(C)Oc1ccc(C2CC(=O)NNC2=O)cc1 (configuration not stated)	·	-0.39
CCn1c2c(c(=O)[nH]c1=O)C(c1ccccc1)C1=C(N2)c2ccccc2C1=O (configuration not stated)	-0.26	0.64
O=S1(=O)NC(c2ccccc2Cl)Nc2ccccc21 (configuration not stated)	1.4	·
COc1cc(OC)c(NS(=O)(=O)c2cc(-c3onc(C)c3C)ccc2C)cc1Cl	0.72	·
C=CCOC(=O)C1=C(C)N=C2SCCC(=O)N2C1c1ccc(OCCCC)cc1 (configuration not stated)	·	-0.3
Cc1cc2nc(-c3ccc(N)cc3)oc2cc1C	-1.3	-2.7

Ordered by SMILES length (falling): 15 of the compounds above.
SMILES	HIV TAR-Tat	CDC25B CDK2 inh
Cc1cc(NS(=O)(=O)c2cc(-c3nc(C)c(C(=O)N4CCC(C)CC4)s3)n(C)c2C)no1	1.4	·
CCn1c2c(c(=O)[nH]c1=O)C(c1ccccc1)C1=C(N2)c2ccccc2C1=O (configuration not stated)	-0.26	0.64
COc1cc(OC)c(NS(=O)(=O)c2cc(-c3onc(C)c3C)ccc2C)cc1Cl	0.72	·
C=CCOC(=O)C1=C(C)N=C2SCCC(=O)N2C1c1ccc(OCCCC)cc1 (configuration not stated)	·	-0.3
COc1ccc(C2Sc3ccccc3N(CCN(C)C)C(=O)C2OC(C)=O)cc1 (configuration not stated)	1.6	·
Cc1c(-c2nsc(NC(=O)c3cccs3)n2)nnn1-c1ccc(F)cc1F	1.6	·
Cc1ccc(OCC(=O)Nc2cccc(-c3nc4ccccc4o3)c2)cc1	·	-0.58
Cc1cc(C)n(-c2nnc(Nc3ccc(O)cc3)c3ccccc23)n1	1.2	·
O=C1CC(n2nnn(-c3ccccc3F)c2=S)C2COC1O2 (configuration not stated)	·	-1.4
CCCCC(=O)Nc1nc2nc(CCC)cc(=O)n2[nH]1	0.59	-1.6
c1ccc2[nH]c(CSc3nc4ccccc4o3)nc2c1	·	1.2
O=S1(=O)NC(c2ccccc2Cl)Nc2ccccc21 (configuration not stated)	1.4	·
Oc1cccc2ccc(CNCCC3=CCCCC3)nc12	0.55	·
Cc1cc2nc(-c3ccc(N)cc3)oc2cc1C	-1.3	-2.7
CCOC(=O)CSc1nncc(=O)[nH]1	·	-0.9

(list continues)
SMILES	HIV TAR-Tat	CDC25B CDK2 inh
Cc1nc(-c2ccc(C)c(S(=O)(=O)NCc3cccc(Br)c3)c2)cs1	0.55	·
CC1CCN(c2ncc3c(n2)CCN(Cc2cccc(F)c2)C3)CC1	-0.04	·
O=C(c1ccccc1Cl)n1c(=O)oc2ccccc21	0.72	·
O=C(Nc1nnc(C(F)(F)F)s1)C1c2ccccc2Oc2ccccc21	·	1.1
NS(=O)(=O)c1cccc(-c2ccc(C3Nc4ccccc4-c4nc5ccccc5n43)o2)c1 (configuration not stated)	·	-0.17
Cc1c(-c2nsc(NC(=O)c3ccco3)n2)nnn1-c1cc(F)ccc1F	0.63	1.1
CCN1CCCC1CNC(=O)c1sc(-n2cccc2)nc1C (configuration not stated)	1.4	-2
CC1=Nc2ccccc2N=C(NC(=O)CSc2nnnn2-c2ccccc2)C1c1ccccc1 (configuration not stated)	·	-0.47
O=C(Nc1ccc(OC(=O)N(c2ccccc2)c2ccccc2)cc1)N1CCOCC1	1.4	1
COc1cc(OC)cc(-n2nnc(-c3nc(-c4ccccc4Cl)no3)c2N)c1	0.83	·
O=C(Cn1cc(S(=O)(=O)N2CCCC2)c(S(=O)(=O)N2CCCC2)c1)NCc1ccco1	0.67	·
COc1ccc2nc(NC(=O)CCN3C(=O)C4C5C=CC(CC5)C4C3=O)sc2c1 (configuration not stated)	·	0.03
CCOc1ccccc1Nc1ncnc2sc(CC)cc12	2.3	·
O=C(COc1ccccc1)Nc1c(C(=O)N2CCOCC2)oc2ccccc12	-0.21	·
Cc1nc2c(c(C)c1CCC(=O)NCCN1CCN(C)CC1)c(=O)n(C)c(=O)n2C	2.5	-1.2
COc1cc(C(c2sc3nc(C)nn3c2O)N2CCN(C)CC2)cc(OC)c1OC (configuration not stated)	·	-1.6
O=C1Nc2cc(S(=O)(=O)N3CCCC3)ccc2N2CCCCC12 (configuration not stated)	2.3	·
CCCCc1nn2cc(-c3ccc(Br)cc3)nc2s1	-0.12	-1.1
Cc1nc2c(c(C)nn2C)c(C)c1CCC(=O)NC1CCCC1	0.45	-0.45
COc1ccc(S(=O)(=O)[C@H]2CS(=O)(=O)C[C@@H]2NCc2ccccc2F)cc1	1.1	-1.5
CN(C)CCCNCC1COC2(CCCC2)O1 (configuration not stated)	·	-1
Cc1nn(CC(=O)NC2CCC(C)CC2)c(=O)c2cccn12 (configuration not stated)	2.9	-0.48
CC1=NS(=O)(=O)c2cc(C(=O)NC(C)C)ccc2N1CC(C)C	0.98	·
Cc1ccc(C(=O)N2N=C(c3ccc(Cl)cc3)CC2(O)C(F)(F)F)o1 (configuration not stated)	·	0.61
O=C1CC(Cc2ccc(Br)cc2)C(=O)N1CCc1ccc2c(c1)OCO2 (configuration not stated)	0.86	·
COc1cccc(-c2nc(SCc3ccc(C)cc3)n3[nH]c(=O)cc3n2)c1	0.14	·
O=C(NCCN1CCOCC1)C1(c2cccs2)CCOCC1	2.3	·
CCOC(=O)N1CCC(Nc2c(N3CCc4ccccc4C3)c(=O)c2=O)CC1	1.1	-1.9
CCCC1c2cccn2CCN1C(=O)Nc1cc(Cl)ccc1OC (configuration not stated)	-0.5	·
O=c1cc(CSc2nc(NCc3ccc4c(c3)OCO4)c3ccccc3n2)nc2ccccn12	·	-2.2
CC(C)(C)c1ccc(-c2nnc3sc(-c4ccccn4)nn23)cc1	-7.1	-2.2
CCCCC(=O)Nc1nn2c(-c3ccco3)nnc2s1	0.46	0.33
Nc1nonc1-c1noc(-c2cc([N+](=O)[O-])nn2Cc2ccccc2)n1	·	-0.01
COc1ccc(N2C(=O)CCC2=O)cc1	0.91	-0.36
CCc1nnc2c(Nc3ccc(Br)cc3)nc3ccccc3n12	-1.5	·
Cc1ccc(C2C(=O)N(C3CCCCCC3)CC(=O)N2Cc2ccc(F)cc2)cc1 (configuration not stated)	·	-1.9
CC(CNS(=O)(=O)c1ccc(-c2ccc(=O)[nH]n2)s1)c1ccccc1 (configuration not stated)	-0.01	·
COc1cc2c(cc1OC)C(C)N(S(=O)(=O)c1ccc(C)cc1)CC2 (configuration not stated)	·	0.67
Cc1ccc(S(=O)(=O)N(Cc2ccccc2)c2nc3nc(C)cc(C)n3n2)cc1	-0.64	-0.28
O=C(c1cc2ccc3cccnc3c2[nH]1)N1CCCc2ccccc21	0.06	·
CCN(CC)CCn1c2ccccc2n2cc(-c3ccc(F)cc3)nc12	1.9	-0.3
NC(=O)C1CCN(S(=O)(=O)c2ccccc2)CC1	0.44	-1.9
COc1ccc(-c2cc(-c3cc(OC)ccc3O)[nH]n2)cc1	-0.69	-2.4
COc1ccc(-c2nc3n(n2)C(c2ccc4c(c2)OCO4)C2=C(CC(C)(C)CC2=O)N3)cc1OC (configuration not stated)	2.2	1.1
Cc1ccc(C(=O)Nc2nnc(-c3nc(C)sc3C)o2)cc1	2.5	0.96
Fc1ccc(C(Nc2ccccn2)c2c[nH]c3ccccc23)cc1 (configuration not stated)	·	0.09
COc1ccc(S(=O)(=O)NCc2cn3ccc(C)cc3n2)cc1F	1.8	-0.76
Cc1ccc(C)n1-c1nnc(N2CCC(C(=O)NCc3cccs3)CC2)s1	1.5	-0.44
O=c1c(NCCc2c[nH]c3ccccc23)nccn1-c1cccc(F)c1	0.12	·
CCC(C)(C)NS(=O)(=O)c1c[nH]c(C(=O)OC)c1	3.2	·
Cc1ccc(S(=O)(=O)Nc2ccc(N3CCCS3(=O)=O)cc2)cc1C	0.86	·
CCOC(=O)CC(NS(=O)(=O)c1cc(OC)ccc1OC)c1cccs1 (configuration not stated)	·	-2.3
O=C1CCSc2ccc(S(=O)(=O)N(CCc3ccccc3)Cc3ccccc3)cc2N1	2.8	·
CCc1nn2c(=O)cc(COc3ccc(Cl)c(C)c3)nc2s1	0.12	0.25
CCOc1ccccc1CNC(=O)CCCc1cn(C)c2ccccc12	·	-1.5
CC(=O)c1cc2c(cc1NC(=O)Cn1c(=O)oc3cc(S(=O)(=O)N4CCCC4)ccc31)OCO2	·	-0.36
Cc1n[nH]c(C)c1CCc1nc2c3ccccc3nc(NCc3cccnc3)n2n1	-0.35	-1.4
Cn1c(=O)c2c(nc(N3CCN(Cc4ccccc4)CC3)n2Cc2cccc(Cl)c2)n(C)c1=O	·	-2
CCN1C(C(=O)OC)=C(OC(=O)c2ccccc2Cl)c2ccccc2S1(=O)=O	0.94	0.93
CCc1nnc2c3ccccc3nc(Nc3ccc4c(c3)OCO4)n12	2.4	·
Additional results follow.
SMILES	HIV TAR-Tat	CDC25B CDK2 inh
CCOC(=O)c1c(C)oc2nc(C)nc(N(C)c3ccc(F)cc3)c12	-0.02	·
Cn1c(=O)c2c(c3ccccc31)OC(=O)CC2c1cccc(Br)c1 (configuration not stated)	-1.2	1.2
CN1C(=O)C(C)(C)c2cc(S(=O)(=O)NCc3ccc(Cl)cc3)ccc21	1.4	·
Cc1ccc(S(=O)(=O)Nc2c(C)c(Cl)c(O)c(Cl)c2C)cc1	·	-0.45
CC(C)NC(=O)O/N=C(/N)COc1ccc(C2SCCS2)cc1	·	-0.31
c1ccc(OCc2nc3c4c5c(sc4ncn3n2)CCCC5)cc1	0.85	-1.4
CC(Cc1ccccc1)(NC(=O)CN)c1ccccc1 (configuration not stated)	-2.7	·
CCOC(=O)Cc1c(C)nc2c(C#N)cnn2c1C	2.1	1.5
O=S(=O)(Nc1cccc(C(F)(F)F)c1)c1cccnc1	·	-0.92
NNS(=O)(=O)c1ccc(Sc2ccccn2)c([N+](=O)[O-])c1	·	-0.43
CCN1c2cc(C)ccc2-n2cccc2C12CCN(C(=O)NCCC(C)C)CC2	1.4	·
COC(=O)c1sc2c(C)cc(Cl)c(C)c2c1C(=O)Nc1ccc(OC)cc1[N+](=O)[O-]	·	-2
CC(Cc1ccco1)NC(=O)c1ccc(NC(=O)C2=CSCCO2)cc1 (configuration not stated)	1.6	·
O=C(Nc1nc(-c2ccc(F)c(F)c2)cs1)c1cccs1	0.55	1.2
Cn1c2ccc(F)cc2c2nnc(SCCN3CCCCC3)nc21	0.42	2
O=C(CCCn1c(=S)[nH]c2ccsc2c1=O)NCC1CCCO1 (configuration not stated)	·	-0.14
COc1ccc(C2=C(C)C(N3CCC(N4CCCCC4)CC3)=NS2(=O)=O)cc1	0.62	-1.1
O=C(CN1C(=O)C2CCCCN2c2ccc(C(=O)N3CCCC3)cc21)N1CCCCC1 (configuration not stated)	-0.79	·
COc1ccc(Cc2nc3c4c5c(sc4ncn3n2)C(C)(C)NC(C)(C)C5)cc1OC	-0.35	-2.1
CC12C=CC(C)(O1)C1C(=O)N(c3ccc(-c4ccccc4)cc3)C(=O)C12 (configuration not stated)	0.31	-2.1
CC(=O)N1c2ccccc2CC1C(=O)NCc1ccccn1 (configuration not stated)	-0.06	·

This is a random part of the collection, and some 0.87% of all compounds hit somewhere here.
